RecA intein inh: inhibitors of M. tuberculosis RecA intein splicing. cell-free RecA intein splicing, fluorescence. hit rate 0.75% among 290,000. AID 2221. inhibition, %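 (about 9 µM by stock and volumes)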. P9WHJ3; in the data active means inhibition above about 30%; inconclusive means no clear call, values can overlap the other calls;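 further: 0% = vehicle wells and 100% = reference inhibitor control wells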
Target sequence (P9WHJ3 whole entry, looked up): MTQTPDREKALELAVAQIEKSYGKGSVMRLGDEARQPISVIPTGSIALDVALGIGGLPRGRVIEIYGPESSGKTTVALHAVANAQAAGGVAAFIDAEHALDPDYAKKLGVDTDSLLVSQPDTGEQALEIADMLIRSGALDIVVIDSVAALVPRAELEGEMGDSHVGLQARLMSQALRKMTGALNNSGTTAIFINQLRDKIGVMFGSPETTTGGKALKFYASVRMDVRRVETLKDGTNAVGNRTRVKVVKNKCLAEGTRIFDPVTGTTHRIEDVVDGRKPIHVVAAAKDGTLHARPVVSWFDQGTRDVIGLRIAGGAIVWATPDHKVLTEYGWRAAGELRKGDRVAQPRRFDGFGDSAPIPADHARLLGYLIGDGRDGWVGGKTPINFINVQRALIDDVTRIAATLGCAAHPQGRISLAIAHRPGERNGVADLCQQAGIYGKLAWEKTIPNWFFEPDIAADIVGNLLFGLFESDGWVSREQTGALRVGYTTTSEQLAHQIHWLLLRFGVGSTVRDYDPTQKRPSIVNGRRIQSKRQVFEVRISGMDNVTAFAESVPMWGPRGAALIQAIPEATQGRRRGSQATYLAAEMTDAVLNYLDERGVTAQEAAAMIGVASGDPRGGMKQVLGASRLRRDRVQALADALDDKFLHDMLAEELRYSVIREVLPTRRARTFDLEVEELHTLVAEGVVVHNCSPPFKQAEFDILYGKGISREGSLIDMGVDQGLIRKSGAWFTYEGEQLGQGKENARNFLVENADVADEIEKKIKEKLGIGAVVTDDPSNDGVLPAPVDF
Mtb H37Rv: M. tuberculosis H37Rv growth inhibitors, H37Rv strain (AID 1626) | M. tuberculosis H37Rv growth inhibition; higher % means a stronger effect | one-dose inhibition, % at 10 µM; IC50 in µM for titrated hits | hit rate 0.95% among 220,000;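 active means confirmed in a dose series; inconclusive means inhibition above 80% but not taken into the dose series; inactive means below 80% or under 30% at every dose of the series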;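 further: bacteria incubated seven days before Alamar blue readout; 0% = bacteria only wells and 100% = bacteria with antibiotic wells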
YopH PTP inh: blocks Yersinia enterocolitica YopH tyrosine phosphatase; fluorescence Ex485/Em525; inhibition, %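 (about 10 µM by stock and volumes)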; hit rate 0.16% among 140,000; AID 898;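 active means inhibition of 50% or more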;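 further: controls were vehicle for no effect and minimum signal wells for full effect; inactives centre near -20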
Mtb bLac sens: beta-lactam sensitization of Mtb H37Rv; M. tuberculosis H37Rv growth with meropenem, percent inhibition; hits of this screen are not shown here; inhibition, % at 25 µM; hit rate 0.27% among 330,000;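 active means about 74% or more and at least 40 points above the plate without the antibiotic, then above 30% in a dose series; inconclusive means first-round hits that could not be retested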;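 further: growth measured after seven days incubation then overnight dye step; 0% = bacteria only wells and 100% = bacteria with antibiotic; twin plates without the antibiotic show which effects depend on it; some results filed as inactive read as strong as hits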
Arbovirus anti: arbovirus infection inhibition; arbovirus infection cell-based antiviral screen; inhibition, % at 10 µM; hit rate 0.37% among 200,000; AID 1251;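 active means inhibition from about 30%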;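 further: bluetongue infection of BSR cells; cell survival read as ATP light after 72 h; 0% = infected wells without compound and 100% = uninfected wells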
Arbovirus anti repeat: also measured in Arbovirus anti; calls as there; inhibition, %; measured here: 10K subset replicate screen; many hits read low in the repeat;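 first of two repeat runs on a subset; 0% = infected and 100% = uninfected wells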
An asterisk follows results filed as active; ? = inconclusive; / = not tested or not shown.

The first 4 compounds (preview)
SMILES | RecA intein inh | Mtb H37Rv | YopH PTP inh | Mtb bLac sens | Arbovirus anti | others
COc1ccc(-n2c(NCCN(C)C)nc3sc4c(c3c2=O)CCCCC4)cc1 | 1.8 | 0.8% | 3.5 | -5.1 | -15.9
O=C(CSCc1cccc(Br)c1)N/N=C/c1ccc2c(c1)OCO2 | -8.0 | -9.7% | -12.1 | 2.9 | -38.5
COC(OC)c1ccnc(-c2ccc(OC(=O)c3ccccc3)cc2)n1 | 1.1 | 32.1% | / | 14.9 | 0.7
Cc1cc(N/C(=N/S(=O)(=O)c2ccc(F)cc2)c2ccccc2)n(-c2ccccc2)n1 | 6.4 | -5.0% | / | -9.7 | -7.8

The whole of this part, from the first entry:
SMILES | RecA intein inh | Mtb H37Rv | YopH PTP inh | Mtb bLac sens | Arbovirus anti | others
COc1ccc(-n2c(NCCN(C)C)nc3sc4c(c3c2=O)CCCCC4)cc1 | 1.8 | 0.8% | 3.5 | -5.1 | -15.9
O=C(CSCc1cccc(Br)c1)N/N=C/c1ccc2c(c1)OCO2 | -8.0 | -9.7% | -12.1 | 2.9 | -38.5
COC(OC)c1ccnc(-c2ccc(OC(=O)c3ccccc3)cc2)n1 | 1.1 | 32.1% | / | 14.9 | 0.7
Cc1cc(N/C(=N/S(=O)(=O)c2ccc(F)cc2)c2ccccc2)n(-c2ccccc2)n1 | 6.4 | -5.0% | / | -9.7 | -7.8
COc1ccc(CCC(C)Nc2cccc(F)c2)cc1 (stereo unspecified) | 9.2 | 22.0% | -18.7 | 3.2 | 1.3
O=C(O)c1cc(-c2ccccc2Cl)n[nH]1 | -0.2 | 2.6% | -29.0 | -12.1 | 11.2
CNC(=S)NN(C)c1nc(C)cc(C)n1 | 2.5 | 0.4% | -14.9 | -2.2 | 4.4
Cc1ccc(S(=O)(=O)N2CCN(C(=O)CN3CCCC3)C2)cc1 | -0.2 | -10.0% | -37.3 | -9.3 | 7.6 | Arbovirus anti repeat=-2.5
O=C(O)C1Cc2ccccc2CN1S(=O)(=O)c1ccccc1 (stereo unspecified) | 0.2 | / | / | -6.4 | /
O=C(COC(=O)c1ccccc1C(=O)OCC(=O)NCCc1c[nH]c2ccccc12)NCCc1c[nH]c2ccccc12 | 7.1 | / | / | 0.4 | /
CCOc1ccc(C(NC(=O)/C=C/c2ccco2)c2ccc(OC)c(OC)c2)cc1 (stereo unspecified) | -1.3 | -8.2% | -32.9 | 1.2 | 10.7
COc1cc(OC)cc(-c2nnc(Sc3ccc(C=O)cc3[N+](=O)[O-])o2)c1 | 51.8* | 6.0% | 17.0 | -5.0 | -18.5
C=CCn1c(O)c(N=NC(=S)Nc2ccc(OC)c(Cl)c2)c2ccccc21 | 15.4 | 46.2% | -25.4 | 3.6 | -17.5
CCC(CO)NCc1ccc(OC2CCCC2)cc1 (stereo unspecified) | 0.6 | -7.3% | -1.6 | -1.0 | -12.6
O=C(c1ccsc1)N1CCCC(N2CCN(c3ccccc3F)CC2)C1 (stereo unspecified) | -4.3 | / | / | ? | /
CCOC(=O)CSc1nc(C2CC2)cc(-c2ccc(Cl)cc2)c1C#N | 2.9 | 12.7% | -1.8 | -3.0 | -13.5
COc1ccc(C)cc1S(=O)(=O)Nc1cccnc1 | 3.1 | -1.3% | -36.2 | 3.0 | -4.1
O=C(O)c1ccc(-n2c(/C=C/c3cccc([N+](=O)[O-])c3)nc3ccccc3c2=O)cc1 | 2.0 | / | / | 4.6 | /
O=C(Cc1ccccn1)c1ccc(Cl)cc1 | 1.0 | / | / | 67.8 | /
COC(=O)c1ccc(C(=O)OC)c(NS(C)(=O)=O)c1 | -1.3 | -0.2% | -23.3 | -11.2 | 3.4
Nc1nc(NCc2ccco2)nc(Nc2ccccc2)c1[N+](=O)[O-] | 0.7 | 5.0% | / | -4.7 | /
COc1ccc(C(=O)Nc2nnc(-c3cccs3)s2)cc1 | 2.0 | 0.5% | -18.6 | 11.1 | -22.4
O=C(Cn1cccc1C(=O)c1ccccc1)NCc1cccc(Cl)c1 | / | -7.6% | / | -6.7 | -9.7
O=c1cc(N2CCN(c3ccccc3)CC2)[nH]c(=O)n1C1CCCCC1 | -2.9 | -2.2% | -29.4 | -7.5 | -5.1
Cc1ccc(OC(F)F)c(NC(=O)Nc2ccc3c(c2)OCO3)c1 | -2.7 | / | / | -0.1 | /
COc1ccc(N(CC(=O)NCc2ccco2)S(=O)(=O)c2ccc(OC)c(OC)c2)cc1 | -1.0 | 0.7% | -35.6 | -7.4 | 0.7
Cc1ccccc1NS(=O)(=O)c1ccc(C2CNC(=O)C2)cc1 (stereo unspecified) | 0.8 | 1.5% | -4.1 | -0.2 | 9.1
CCC(CC)N=C1NS(=O)(=O)c2cc([N+](=O)[O-])ccc21 | -6.0 | -6.3% | / | -6.8 | -10.2
COc1ccc(NC(C)=O)cc1C | -3.0 | -6.8% | / | 2.6 | 0.5
COc1cccc(/C=N/NC(=O)c2nc(-c3ccccc3)cc(-c3ccccc3)n2)c1 | 2.3 | 3.1% | 8.7 | -1.5 | -11.0
CC(C)CC(OC(=O)CC1Sc2ccccc2NC1=O)C(=O)NC1CCCC1 (stereo unspecified) | 2.3 | / | / | -3.5 | /
COCCCNC(CC(=O)Nc1ccc(OC)cc1OC)C(=O)O (stereo unspecified) | -0.8 | -4.9% | 11.3 | 1.9 | 6.9
O=C(O)c1ccccc1N1C(=O)C2C3c4ccccc4C(Br)(c4ccccc43)C2C1=O (stereo unspecified) | -3.3 | / | / | 0.4 | 5.9
CCOc1ccc(S(=O)(=O)N2CCC(C(=O)Nc3cccc(NC(C)=O)c3)CC2)cc1 | 0.4 | / | / | 3.3 | /
Cc1ccc(NC(=O)C2CCN(S(=O)(=O)c3cccs3)CC2)cc1C | -0.7 | -1.2% | -7.2 | 0.7 | 11.6
Cc1cc(=O)[nH]c2c(C)cc(S(=O)(=O)N3CCOCC3)cc12 | 0.5 | / | / | -0.7 | /
CC1CCCC(NC(=O)c2cc(S(=O)(=O)N3CCOCC3)ccc2F)C1C (stereo unspecified) | 2.1 | / | / | 0.2 | /
Cc1cccc(NC(=O)CN2C(=O)COc3ccc(Cl)cc32)c1C | 1.1 | -0.3% | -42.1 | -4.1 | -0.6 | Arbovirus anti repeat=2.2
Cc1nn(-c2ccccc2)c(C)c1S(=O)(=O)O | 0.3 | -1.9% | / | -5.7 | 5.6
Cc1nc2scc(-c3ccco3)c2c(=O)n1/N=C/N(C)C | -0.6 | -2.1% | 14.4 | -2.8 | 3.6
CC1CN(CC(=O)Nc2nc(-c3ccc(Cl)cc3)cs2)CC(C)O1 (stereo unspecified) | 0.4 | / | / | -0.6 | /
Cn1c(SCC(=O)Nc2ccccc2)nc(O)cc1=O | 0.3 | 0.9% | -34.0 | 20.1 | 4.1
CCn1c(COc2cccc(C)c2)nnc1SCC(=O)CC(=O)Nc1ccccc1OC | 9.4 | -2.6% | -41.7 | -14.6 | -15.7
Cc1onc(NC(=O)c2ccc([N+](=O)[O-])o2)c1Br | -3.0 | -3.0% | / | / | /
COCCn1c(C)cc(C(=O)COC(=O)c2cncc(Br)c2)c1C | 0.9 | 5.3% | -1.2 | 3.4 | -6.4
COc1cccc(C(C(=O)NC(C)(C)C)N(C(=O)CCC(=O)Nc2cc(C)on2)C2CC2)c1OC (stereo unspecified) | / | -5.3% | -23.1 | -2.7 | 6.0
CCc1nnc(NC(=O)[C@@H](NC(=O)c2cc(OC)cc(OC)c2)C(C)C)s1 | -2.5 | -8.2% | / | -4.4 | -8.6
Cc1cccn2c(=O)c3cc(C(=O)N4c5ccccc5CC4C)n(C)c3nc12 (stereo unspecified) | -4.9 | / | -29.2 | -8.3 | -7.9
CCOC(=O)c1c(C)[nH]c2c1cc(O)c1ccccc12 | -2.3 | 3.0% | -8.6 | 3.0 | -14.5
O=S1(=O)N=C(Nc2ccc(S(=O)(=O)N3CCCCC3)cc2)c2ccccc21 | -4.1 | -2.2% | -17.9 | 6.1 | -5.8
COc1cccc(CC2(CO)CCN(C(=O)NC3CCCCC3)CC2)c1 | 0.6 | 5.2% | / | -6.3 | 5.2
Cc1cccc(N2CN=c3s/c(=C\c4ccccn4)c(=O)n3C2)c1 | -2.8 | 9.3% | / | 0.7 | /
CCCN(C(=O)c1ccco1)c1nnc(-c2ccncc2)s1 | -1.5 | -1.9% | -27.3 | 3.0 | -0.9
O=c1oc2ccccc2c(NC2CCCCC2)c1NS(=O)(=O)c1ccc(F)cc1 | -1.9 | / | / | 8.5 | /
CCN1CCN(C(=O)c2sc3nc(C)nc(N4CCC(C)CC4)c3c2C)CC1 | -7.3 | 0.9% | -36.9 | -4.5 | -6.1
CCN(C(=O)COC(=O)/C=C/c1cccc(Br)c1)C1CCS(=O)(=O)C1 (stereo unspecified) | -2.3 | / | / | -2.4 | /
Cc1noc(/C=C/c2ccco2)c1S(=O)(=O)N1CCC(C(=O)N2c3ccccc3CC2C)CC1 (stereo unspecified) | 10.1 | / | -32.5 | -4.0 | 21.5
Cc1ccc2nc(-c3ccsc3)c(NC3CCCC3)n2c1 | 0.2 | 9.3% | / | 4.4 | -2.7
CCc1ccc2oc(-c3cc(N=Cc4cccc(OC)c4O)ccc3O)nc2c1 | / | 0.7% | -49.9 | 90.5 | -10.5
N#Cc1c(-c2ccco2)nc(NCC2CCCO2)[nH]c1=O (stereo unspecified) | -1.3 | 2.8% | -13.5 | -8.5 | 2.4

Fetched by structure from above (six):
SMILES | RecA intein inh | Mtb H37Rv | YopH PTP inh | Mtb bLac sens | Arbovirus anti | others
O=S1(=O)N=C(Nc2ccc(S(=O)(=O)N3CCCCC3)cc2)c2ccccc21 | -4.1 | -2.2% | -17.9 | 6.1 | -5.8
Cc1cccn2c(=O)c3cc(C(=O)N4c5ccccc5CC4C)n(C)c3nc12 (stereo unspecified) | -4.9 | / | -29.2 | -8.3 | -7.9
CCN1CCN(C(=O)c2sc3nc(C)nc(N4CCC(C)CC4)c3c2C)CC1 | -7.3 | 0.9% | -36.9 | -4.5 | -6.1
CCN(C(=O)COC(=O)/C=C/c1cccc(Br)c1)C1CCS(=O)(=O)C1 (stereo unspecified) | -2.3 | / | / | -2.4 | /
CCc1ccc2oc(-c3cc(N=Cc4cccc(OC)c4O)ccc3O)nc2c1 | / | 0.7% | -49.9 | 90.5 | -10.5
CCCN(C(=O)c1ccco1)c1nnc(-c2ccncc2)s1 | -1.5 | -1.9% | -27.3 | 3.0 | -0.9

Following part
SMILES | RecA intein inh | Mtb H37Rv | YopH PTP inh | Mtb bLac sens | Arbovirus anti | others
COc1ccccc1NC(=O)C1CCOC1=O (stereo unspecified) | 1.8 | / | / | -0.3 | /
COc1ccc(-c2ccc(CCC(=O)O)n2CC2CCCO2)cc1 (stereo unspecified) | -17.1 | -3.9% | / | -8.2 | -2.5
Nc1ccc2nc(-c3ccc(-c4nc5ccc(N)cc5[nH]4)cc3)[nH]c2c1 | -18.0 | / | / | -1.7 | /
CN1C(=O)C2(OCC(C)([N+](=O)[O-])CO2)c2ccccc21 (stereo unspecified) | -0.2 | / | / | 2.2 | /
S=c1[nH]nc(-c2ccccc2)n1/N=C/c1cccs1 | -1.0 | 0.9% | 4.2 | -5.7 | 1.9
O=C(COC(=O)c1cc(-c2ccncc2)nc2ccccc12)Nc1ccc2c(c1)OCO2 | 0.3 | 5.9% | -30.4 | 3.1 | 5.7
Cc1cc(NC(=O)CSc2ccc(-c3ccccc3)nn2)no1 | 0.7 | -4.2% | -47.1 | -5.4 | 1.7
COc1cc2ccccc2cc1C(=O)NCCCN1CCOCC1 | -5.3 | / | / | 5.8 | /
COc1cccc(C2C3=C(CC(C)(C)CC3=O)Nc3cc4c(cc32)OCO4)c1 (stereo unspecified) | -1.4 | -5.5% | -43.4 | 7.5 | -28.3
COc1ccc(NC(=O)CCN2C(=O)c3ccccc3C2=O)c(OC)c1 | -1.5 | / | / | -9.3 | /
CC(C)C(C(=O)NC1CCCC1)N(CC1CCCO1)C(=O)CNS(=O)(=O)c1ccc(F)cc1 (stereo unspecified) | -0.3 | / | / | -4.8 | /
C/C(=N\NC(=S)Nc1c(C)cccc1C)c1cc2ccccc2o1 | 1.9 | 1.1% | -12.3 | 9.7 | 1.2
COC(=O)COc1cc(C)cc2oc(=O)c3c(c12)CCCC3 | 0.7 | -10.0% | -25.4 | -0.5 | -2.7
Cc1cccc(C)c1OCc1cc(C(=O)N2CCN(C3CCCC3)CC2)no1 | 3.6 | / | / | ? | /
N#C/C(=C\c1ccc[nH]1)C(=O)c1ccccc1 | -0.4 | 4.2% | / | -5.4 | /
CC1(C)Cc2c(sc(NC(=O)c3ccc4c(c3)OCCO4)c2C(N)=O)C(C)(C)N1 | -0.4 | / | / | -19.9 | /
CCOc1cc(/C=N/NC(=O)c2ccc(CN3CCOCC3)cc2)ccc1OCc1ccccc1 | -1.5 | 5.7% | -24.5 | 3.9 | -12.1

Bioassay records: PubChem, several laboratories

Some of the compounds tested; rates above refer to the full screens.
